Cruzain inh noDet: qHTS Assay for Promiscuous and Specific Inhibitors of Cruzain (without detergent); Cruzipain (Trypanosoma cruzi), P25779; AID 1476, 2009; purified cruzain, Z-FR-AMC fluorescence, no detergent; 2.3% of 200,000 active; Potency, µM, without a hit: max response, negative = inhibition, actives largely listed as inhibitors; active = well fitted curve in the direction sought with a large enough effect; inconclusive = small, poorly fitted or top-dose-only effect, or another doubt; inactive = no such curve, though single readings can be large; an effect the other way counts as inactive or inconclusive;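 also: plate controls were enzyme without inhibitor for no effect and buffer without enzyme for full effect; nearly all actives have a fitted effect of over 40% in size; top concentration of the series not given in the record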
Target sequence (P25779 123-467 limits assumed): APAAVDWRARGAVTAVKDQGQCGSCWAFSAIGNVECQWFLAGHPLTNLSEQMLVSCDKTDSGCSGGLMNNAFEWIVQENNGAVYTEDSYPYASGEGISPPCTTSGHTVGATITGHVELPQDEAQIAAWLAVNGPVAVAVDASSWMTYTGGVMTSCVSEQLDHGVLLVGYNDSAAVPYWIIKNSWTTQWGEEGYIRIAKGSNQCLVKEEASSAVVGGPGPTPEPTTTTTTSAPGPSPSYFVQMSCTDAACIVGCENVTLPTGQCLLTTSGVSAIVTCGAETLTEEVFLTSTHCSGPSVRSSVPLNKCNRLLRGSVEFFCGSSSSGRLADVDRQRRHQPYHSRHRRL
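Purified cruzain at 1.5 nM, pre-incubated 15 min with compound at room temperature in 100 mM sodium acetate pH 5.5, 5 mM DTT, 0.00005% Triton X-100. Reaction started with 2 uM Z-FR-AMC; AMC fluorescence increase over 60 s gives rate.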
NS1 function inh: qHTS Assay for Inhibitors of Influenza NS1 Protein Function; Potency, µM (highest dose often 46.1 µM), inactives show at the top dose activity, positive = more growth; S. cerevisiae slowed by influenza A NS1, growth recovery by OD600; 0.4% of 270,000 active; AID 2326, 2010; also: actives are rising curves; nearly all actives have a fitted effect of over 50% in size
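OD600 was taken as the measure of yeast growth restored by compound in an NS1-expressing S. cerevisiae strain. Cells had been washed out of glucose medium and diluted 1:100 into galactose -URA medium, pH 6.0.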
Cruzain Triton: qHTS Assay for Promiscuous and Specific Inhibitors of Cruzain (with detergent) | Cruzipain (Trypanosoma cruzi), P25779 | purified cruzain, Z-FR-AMC fluorescence, 0.01% Triton | Potency, µM, inactives show max response, negative = inhibition, usual class: inhibitors | 0.43% of 200,000 active | AID 1478, 2009; active = well fitted curve in the direction sought with a large enough effect; inconclusive = small, poorly fitted or top-dose-only effect, or another doubt; inactive = no such curve, though single readings can be large; an effect the other way counts as inactive or inconclusive;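 also: plate controls were neutral wells for no effect and buffer without enzyme for full effect; nearly all actives have a fitted effect of over 40% in size; top concentration of the series not given in the record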
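Steps: dispense cruzain (1.5 nM final) in acetate buffer pH 5.5 with DTT and 0.01% Triton X-100; pin-transfer compounds; incubate 15 min RT; add Z-FR-AMC (2 uM final); read fluorescence every 30 s, using the 60 s intensity change.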
RE007 growth inh: qHTS Assay for Inhibitors of the HIV-1 protein Vpr. Potency, µM (series often up to 92.2 µM), for inactives: at the top dose activity change, negative = less growth. AID 651644, 2012. 0.21% of 360,000 active. S. pombe RE007 Vpr strain, BacTiter-Glo ATP luminescence, 24 h; control for the full effect not named in the record; active = well fitted falling curve with a large enough effect; inconclusive = small, poorly fitted or top-dose-only effect; inactive = no such curve, though single readings can be large or run the other way;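 also: % is scaled to controls: 0 for no effect and ±100 for the full control effect; nearly all actives have a fitted effect of over 50% in size; the assay follows cell death caused by Vpr and the record does not say whether a fall means rescue or toxicity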
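Fission yeast strain RE007, carrying one chromosomally integrated HIV-1 vpr copy, was seeded at OD 0.01 in PMG+AL medium with 23 nL pinned compound. After 24 h at 30 °C and 99% humidity, viability was read by BacTiter-Glo luminescence.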
SARS PLP yeast: qHTS of Yeast-based Assay for SARS-CoV PLP. 0.19% of 330,000 active. AID 485353, 2010. Potency, µM (highest dose often 32.9 µM), without a hit: at the highest dose activity, positive = growth rescue. S. cerevisiae expressing SARS-CoV PLpro, growth rescue; control for the full effect not named in the record; also: 0% is about no effect; nearly all actives have a fitted effect of over 55% in size; growth read by luminescence after 48 h
2A StopGo: High Throughput Screening for Foot and Mouth Disease Virus Antivirals | AID 1159524, 2015 | 1.2% of 410,000 active | Potency, µM (doses to about 57.9 µM), for the others: top-dose signal change, negative = less light | human cells with a luciferase reporter of 2A StopGo recoding; control for the full effect not named in the record; active = well fitted falling curve with a large enough effect; inconclusive = small, poorly fitted or top-dose-only effect; inactive = no such curve, though single readings can be large or run the other way; tested in HEK293T cells; also: % is scaled to controls: 0 for no effect and ±100 for the full control effect; nearly all actives have a fitted effect of over 45% in size; luciferase light after 4 h
Marburg entry inh: qHTS for inhibitors of binding or entry into cells for Marburg Virus. Potency, µM (highest dose often 37.8 µM), for the others: at the highest dose activity change, negative = inhibition, actives largely listed as inhibitors. Marburg virus pseudotyped entry inhibition, cell reporter; control for the full effect not named in the record; about a third of the inactives were read at about 46 µM. 1.8% of 300,000 active; active = well fitted inhibition curve with a large enough effect; inconclusive = small, poorly fitted or top-dose-only effect, or effect the other way; inactive = flat fitted curve, though single readings scatter; tested in HEK293 cells; about a fifth of its hits are not listed in these tables; also: % is scaled to controls: 0 for no effect and ±100 for the full control effect; luciferase read-out
Lassa entry inh: qHTS for Inhibitors of binding or entry into cells for Lassa Virus; 1.2% of 300,000 active; Lassa virus pseudotype entry inhibition, cell reporter; control for the full effect not named in the record; AID 540256, 2011; Potency, µM (titrated, usually from 37.9 µM), for the others: at the highest dose activity change, negative = inhibition, most hits filed as inhibitors; active means well fitted inhibition curve with a large enough effect; inconclusive means small, poorly fitted or top-dose-only effect, or effect the other way; inactive means flat fitted curve, though single readings scatter; tested in HEK293 cells; also: % is scaled to controls: 0 for no effect and ±100 for the full control effect; nearly all actives have a fitted effect of over 50% in size; luciferase read-out
* marks the source's active call; other numbers are inactive results; u = inconclusive; x = no result given; [ ] = remark or other dose. Unless noted, calls follow the shape of the dose curve; as a rule, active means well fitted rising curve with a large enough effect; inconclusive means small, poorly fitted or top-dose-only effect; inactive means no such curve, though single readings can be large or run the other way. Potency is read from the fitted curve at half-maximal effect.

Every second line gives: Cruzain inh noDet | NS1 function inh | Cruzain Triton | RE007 growth inh | SARS PLP yeast | 2A StopGo | Marburg entry inh | Lassa entry inh
- COc1ccc([N+](=O)[O-])cc1NC(=O)CCS(=O)(=O)c1ccc(Br)cc1
    x | 1% | x | 3% | -2% | 8% | -24%[46.1 µM] | -1%[46.1 µM]
- O=C(OCC(=O)N1CCN(C(=O)c2ccco2)CC1)c1ccccc1Cc1ccccc1
    u | u | -2.9% | 9% | 8% | x | -2% | u
- CCNc1nc2c(c(=O)n(C)c(=O)n2C)n1Cc1ccc(F)cc1
    3% | x | -0.5% | x | x | u | x | u
- NNC(=O)c1cc2ccccc2cc1O
    -2% | u | -5.7% | x | u | 6.3µM* | u | 13%
- CCOc1ccc(OCC(=O)Nc2ccc(N3CCCCC3)cc2)cc1
    x | 10% | x | -17% | 24% | -14% | -9% | -10%
- COc1ccc(Cl)cc1NC(=S)N(CCCN1CCOCC1)Cc1cn(C)c2ccccc12
    14% | -14% | -6.5% | -15% | -18% | -8% | u | -14%
- O=C(NNS(=O)(=O)c1ccccc1[N+](=O)[O-])c1cccnc1
    x | -5% | x | 22% | 2% | 12% | x | x
- COc1ccc(-c2cc(C(=O)N3CC(C)CC(C)C3)c3ccccc3n2)cc1OC (centres undefined)
    x | x | x | 18% | 0% | 6% | -19% | -17%
- COc1ccc2c(CC(=O)OCC(=O)N3CCc4ccccc43)coc2c1
    4% | 3% | 0.2% | -12% | -1% | 0% | 2% | 1%
- CCCCNC(=O)N1CCN(C(=O)c2ccco2)CC1
    x | 2% | x | 11% | -1% | -12% | 19%[46.1 µM] | 23%[46.1 µM]
- O=C(CNc1ccc2ccccc2c1)N/N=C/c1ccc([N+](=O)[O-])o1
    6% | 9% | -1.0% | 1% | -11% | 16% | -15%[46.1 µM] | -9%
- COc1ccc(N2CCN(c3oc(-c4ccco4)nc3C#N)CC2)cc1
    -1% | -51% | u | -17% | 0% | 0% | -9% | 1%
- CC12CCC(C/C1=N\N=C1\NC(=O)/C(=C\c3cccc(Br)c3)S1)C2(C)C (centres undefined)
    -20% | 0% | -5.0% | 1% | -17% | -24% | -32% | -4%
- COC(=O)c1scc(-c2ccc(C)cc2)c1S(=O)(=O)N1CCN(c2ccccc2)CC1
    -17% | x | -3.4% | x | x | 6% | x | -10%[46.1 µM]
- S=C1NC[C@H](CC2CCCCC2)N1CCc1cccc2ccccc12
    x | 1% | x | 10% | 1% | 3% | x | x
- COc1ccccc1NC(=O)C(CCS(C)(=O)=O)N1C(=O)c2ccccc2C1=O (centres undefined)
    2% | 3% | 7.9% | 15% | -2% | 12% | 27%[46.1 µM] | u
- Cc1[nH]n(-c2ccccc2)c(=O)c1N=Nc1ccc(C#N)cc1
    x | 1% | x | 3% | -1% | -13% | x | x
- O=C(N/N=C/c1ccc(OC(=O)c2cccc(Br)c2)cc1)c1cccnc1
    x | -34% | x | -6% | -3% | 27% | u | 27%[46.1 µM]
- COc1ccccc1NS(=O)(=O)c1cc(N2Cc3ccccc3C2=N)ccc1N1CCOCC1
    x | x | x | -2% | -4% | 26% | 7.1µM* | u
- CC(C)CSc1ccc(S(=O)(=O)NCC(=O)O)cc1[N+](=O)[O-]
    x | -2% | x | 7% | 0% | -15% | 16%[46.1 µM] | -4%
- Cc1ccc(C(=O)NC(C)C2CC3CCC2C3)c(C)c1 (centres undefined)
    x | 3% | x | 26% | 13% | 19% | u | 1%[46.1 µM]
- CC1(C)Oc2ccc(C(=O)NNC(=O)Nc3ccccc3)cc2NC1=O
    x | -1% | x | -14% | 0% | -19% | -6%[46.1 µM] | 7%
- CSc1nnc(C)c(/C=C/Nc2ccc(F)cc2F)n1
    x | x | x | -12% | -1% | -16% | u | u
- COc1ccc(NC(=O)Cn2c(=O)n(-c3ccc(C)cc3)c(=O)c3c2c2cc(C)ccc2n3C)cc1
    -5% | x | -0.4% | x | x | 5% | x | 24%[46.1 µM]
- CCOc1ccc(C(=O)NC(=S)Nc2cccc(S(=O)(=O)NC3=NCCC3)c2)cc1
    x | -19% | x | 16% | -2% | 2% | u | u
- CC(C)(C)c1[nH]nc2c1C(c1cccnc1)C(C#N)=C(N)O2 (centres undefined)
    -9% | 6% | 2.1% | -6% | 4% | x | 1% | 7%
- COc1ccc(OC)c(-c2csc(NC(=O)Cc3cc(OC)c(OC)c(OC)c3)n2)c1
    x | 22% | x | 11% | 4% | u | u | -11%
- CCN(CC(=O)Nc1ccc(NC(C)=O)cc1)C(=O)/C=C/c1cccs1
    1% | 2% | -4.5% | x | -4% | -18% | u | 4%
- COc1ccc(NC(=O)CSCc2ccccc2C)cc1
    -7% | -8% | -6.9% | 6% | 4% | 82%[activator] | 10% | u
- CCOc1ccc(CCNC(=O)C2=C(C)C(=O)OC23CCCCC3)cc1OCC
    x | x | x | -15% | 5% | -22% | -6%[46.1 µM] | -13%
- CCOc1ccccc1NC(=O)CSc1nnc(NC(=O)c2ccco2)s1
    x | 3% | x | 1% | 4% | -9% | 6% | 21%
- COCCCNC(=O)Cn1cc(/C=C2\C(=O)NC(=O)N(c3ccccc3F)C2=O)c2ccccc21
    x | 7% | x | 7% | -1% | u | 2% | 2%
- CC(Sc1nnc(NCc2ccccc2)s1)C(=O)Nc1ccc2c(c1)C(=O)c1ccccc1C2=O (centres undefined)
    32µM* | u | -9.1% | 13% | u | 7% | u | 0%
- CCOc1ccc(NC(=O)CCC(=O)c2ccc(F)cc2)cc1
    x | -2% | x | -2% | -1% | -3% | x | x
- COc1cc(C2C3=C(CC(C)(C)CC3=O)NC3=C2C(=O)c2ccccc23)ccc1O (centres undefined)
    x | x | x | -7% | 1% | -10% | -4%[46.1 µM] | -4%
- Cc1ccc(NC(=O)C2C3CCCC2C3c2ccccc2)c(C)c1 (centres undefined)
    -8% | 9% | -1.7% | 1% | 7% | 8% | -6% | 8%
- Cc1ccc(N=C2NC(=O)CC(C(=O)Nc3ccc4c(c3)OCO4)S2)cc1 (centres undefined)
    x | x | x | 6% | -7% | 2% | u | u
- Cc1nn(-c2ccc(F)cc2)c2sc(C(=O)O)cc12
    6% | -58% | -1.3% | 1% | 0% | x | 10% | 15%
- CCOC(=O)c1ccc(NC(=O)CSc2cc(-c3ccccc3)nc(C)n2)cc1
    8% | x | -8.3% | x | x | -21% | u | -8%[46.1 µM]
- CCCCN(C)C(=O)C1CCCN(c2ncnc3onc(-c4ccc(F)cc4)c23)C1 (centres undefined)
    9% | x | -0.8% | x | x | -19% | x | 4%[46.1 µM]
- CCc1ccc(N(CC(=O)NC(C)(C)C)C(=O)CCC(=O)Nc2ccccn2)cc1
    x | 0% | x | -8% | 3% | -1% | x | x
- CC1CCn2c(nc3cc(C(=O)NCc4ccc(F)cc4)ccc32)C1 (centres undefined)
    5% | x | 4.1% | x | x | 3% | x | -3%[46.1 µM]
- COc1ccc(C)cc1NC(=O)CNC(=O)[C@@H]1Cc2ccccc2CN1
    x | -2% | x | -4% | 20% | 8% | -11%[46.1 µM] | 15%[46.1 µM]
- O=C(CSc1nnc2c(n1)[nH]c1ccccc12)Nc1nncs1
    x | -3% | x | 9% | -1% | 2% | -15%[46.1 µM] | 2%[46.1 µM]
- Cc1ccccc1OCC(=O)Nc1sc2c(c1C#N)CCC2
    -8% | -8% | 4.9% | 0% | 2% | x | 10% | 7%
- CN(C)C(=O)Oc1ccc(OCc2n(C)c3ccccc3[n+]2C)cc1
    -4% | 8% | -2.2% | 6% | 19% | -19% | -12% | 8%
- CN(/N=C/c1ccco1)C1=NS(=O)(=O)c2ccccc21
    x | x | x | 12% | -3% | 9% | -9%[46.1 µM] | -10%[46.1 µM]
- O=c1cccc2n1CC1CC2CN(c2ncnc3c2cnn3-c2ccccc2)C1 (centres undefined)
    3% | 2% | 0.4% | -2% | -1% | 6% | -6% | 20%
- Cc1nc(NC(=O)C2CC2)sc1C(=O)Nc1ccccc1
    x | 9% | x | 8% | 17% | 5% | -6% | -11%
- COc1ccccc1N1CCN(C(=O)C2Cc3ccccc3CN2C(=O)c2ccco2)CC1 (centres undefined)
    x | x | x | 15% | 1% | -18% | -3% | -25%
- Fc1ccccc1Nc1c2c(nc3ccccc13)CCC2
    -17% | x | -7.6% | x | x | u | u | -26%[46.1 µM]
- Cc1cc2oc(=O)cc(CNc3ccccc3F)c2cc1O
    x | -1% | x | 0% | -11% | 24% | -28%[46.1 µM] | 11%[46.1 µM]
- COc1ccc(OC)c(NC(=O)Cc2c(C)n(C(=O)c3ccc(Cl)cc3)c3ccc(OC)cc23)c1
    -5% | x | 0.8% | x | x | u | -22%[46.1 µM] | u
- CCCn1cc(C(=O)N(C)C2CCCN(Cc3ccccc3F)C2)c(C)n1 (centres undefined)
    x | -8% | x | 15% | 5% | -9% | u | 2%
- Cc1ccc(C)c(SCC(=O)OCC(=O)NCCNC(=O)COC(=O)CSc2cc(C)ccc2C)c1
    x | x | x | 13% | -4% | -16% | -7%[46.1 µM] | 20%
- COc1ccc(OCCn2c(=N)n(CCO)c3ccccc32)cc1
    6% | 0% | 1.4% | 0% | 6% | -27% | u | -27%
- COc1cc(OC)cc(C(=O)NCc2ccc3c(c2)cc(C)n3C)c1
    x | 2% | x | 22% | -1% | 14% | u | u
- C=CCOC(=O)C1=C(C)NC(=O)NC1c1cc(Cl)cc(Cl)c1OC (centres undefined)
    x | 3% | x | 7% | -6% | -10% | x | x
- CN1C(=O)c2ccc(C(=O)Nc3ccc4c(c3)OCO4)cc2C1=O
    x | 11% | x | -6% | 0% | 38%[activator] | x | x
- Cc1ccccc1CNC(=O)CCC(=O)N1CCSc2ccccc21
    14% | x | -1.3% | x | x | 2% | x | 2%[46.1 µM]
